Screening data deposited in PubChem BioAssay by National Center for Advancing Translational Sciences (NCATS).
VDR inhibitor: inhibitors of human vitamin D receptor; Potency, µM, for the others: max response, negative = inhibition, usual class: inhibitors; VDR-SRC2-3 peptide fluorescence polarization, 2 h; P11473; AID 504847; 400,000 compounds, 0.93% hits; active = well fitted inhibition curve with a large enough effect; inconclusive = small, poorly fitted or top-dose-only effect, or another doubt; inactive = no such curve, though single readings can be large or run the other way; note: series mostly up to about 120 µM
Target sequence (P11473 whole entry, looked up): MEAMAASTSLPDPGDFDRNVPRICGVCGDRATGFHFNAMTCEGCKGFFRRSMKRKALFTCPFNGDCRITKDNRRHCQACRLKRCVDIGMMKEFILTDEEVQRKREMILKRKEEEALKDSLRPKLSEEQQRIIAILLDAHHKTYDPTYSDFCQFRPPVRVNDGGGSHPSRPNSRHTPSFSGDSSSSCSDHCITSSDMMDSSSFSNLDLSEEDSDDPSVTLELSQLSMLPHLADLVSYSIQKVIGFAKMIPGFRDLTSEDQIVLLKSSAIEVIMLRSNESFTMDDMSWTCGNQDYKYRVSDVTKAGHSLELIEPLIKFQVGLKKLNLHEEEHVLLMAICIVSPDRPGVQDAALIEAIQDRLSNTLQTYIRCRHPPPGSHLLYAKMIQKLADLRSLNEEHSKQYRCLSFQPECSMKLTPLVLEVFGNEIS
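VDR–SRC2-3 interaction, FP format. Cmpds 23 nl via pintool, brief spin, 2 h ambient incubation.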
* hit, by the source's call; ? = inconclusive. % is set by controls: 0 for no effect and ±100 for the full control effect; potency is the fitted concentration of half-maximal effect.

VDR inhibitor,Compound
5%,Cn1c(-c2nc(-c3ccccc3)cs2)nc2ccccc21
-21%,COc1cc2c(cc1OC)[C@@H]1Cc3ccc(OC)c(OC)c3CN1CC2
10%,Cc1cccn2c(=O)c3cc(S(=O)(=O)c4ccccc4)c(=N)n(CC4CCCO4)c3nc12 (centres undefined)
9%,Cc1cccc(Oc2ccc(C(=O)NC3CCSC3=O)cn2)c1C (centres undefined)
1%,COc1cc2c(cc1NC(=O)CSc1nc3cc(Cl)ccc3s1)oc1ccccc12
2%,CS(=O)(=O)c1cccc(C(=O)Nc2ccc3c(c2)OCCCO3)c1
-8%,CCOC(=O)c1c(O)c(O)c(C(=O)OCC)n1-c1ccccc1
-20%,CN(C)CCCn1c(SCC(=O)N2CC(=O)Nc3ccccc32)nc2ccccc2c1=O
-15%,CC1CC(C)CN(C(=O)C2CCN(C(=O)Nc3ccccc3)CC2)C1 (centres undefined)
?,CCOC(=O)CSc1nc(-c2ccccc2)ns1
-10%,CCOC(=O)c1c(S(=O)(=O)NCC(=O)Nc2ccc(OC)cc2)c(C)n(C)c1C
6%,CCN=C(NCC)SC1CC(=O)N(c2cccc(OC)c2)C1=O (centres undefined)
-15%,Cn1c(O)c(N=Nc2ccccc2[N+](=O)[O-])c2ccccc21
-3%,Cc1cc(C)c(S(=O)(=O)N2CCC(C(=O)NCc3ccncc3)CC2)c(C)c1
-7%,N#Cc1cnn2c(C(F)(F)F)cc(-c3ccccc3)nc12
-13%,CCOC(=O)c1c(CC(C)C)csc1NC(=O)COC(=O)C1=NNC(=O)CC1
?,Cc1ccc(-n2c(-c3ccccc3)c[nH]c2=S)cc1
1%,CCCn1c2ccccc2c2cnn(CC(=O)NCc3cc(OC)ccc3OC)c(=O)c21
-4%,COc1ccc(C2C3=C(CC(C)(C)CC3=O)Nc3nc(C)nn32)cc1OC (centres undefined)
-9%,Cc1oc2ccc(Br)cc2c(=O)c1-c1nn[nH]n1
-5%,Cc1cc(C)cc(C(=O)NCC(=O)OCC(=O)NCc2ccco2)c1
-19%,COc1ccccc1CN1CCCC(CN(CCN(C)C)C(=O)c2ccc(C)cc2)C1 (centres undefined)
8%,Clc1cc(NCc2cccs2)ccc1N1CCOCC1
-5%,CN(C)c1ccc(/C=N/NC(=O)c2ccccn2)cc1
24%,CC#CCNCc1ccccc1
-3%,NS(=O)(=O)c1cc([N+](=O)[O-])ccc1NCc1cccnc1
6%,O=C(CN1C(=O)C2CCCCN2c2ccc(C(=O)N3CCCC3)cc21)NCc1ccccc1 (centres undefined)
-15%,O=C(CC1NC(=O)NC1=O)Nc1ccccc1 (centres undefined)
1%,O=C1CN(C(=O)CCN2CCOCC2)C(c2ccccc2)c2cc(Br)ccc2N1 (centres undefined)
-19%,Cc1cccc(CCNC(=O)C2CCCN(S(=O)(=O)c3ccc4c(c3)oc(=O)n4C)C2)c1 (centres undefined)

Other results follow.
VDR inhibitor,Compound
-19%,CCOC(=O)N1CCN(c2ccc([N+](=O)[O-])cc2F)CC1C (centres undefined)
-19%,O=C(CN1CCN(C/C=C/c2ccccc2)CC1)NCc1ccc(Cl)cc1
-3%,CCCS/C(N)=N/N=C/c1ccccc1O
0%,O=C(Nc1ncn[nH]1)c1cccc(S(=O)(=O)N2CCOCC2)c1
-4%,O=C(Cc1noc2ccccc12)Nc1ccc(Cl)cc1
-29%,Cc1c(NC(=O)COC(=O)C2=COCCO2)cccc1[N+](=O)[O-]
-20%,COc1cc(CCNC(=O)c2ccccc2NC(=O)C2=C(C)OCCS2)cc(OC)c1OC
-8%,Cc1cc(N2CCOCC2)c2c(N)c(C)cc(C)c2n1
-3%,Cc1nc(CNS(=O)(=O)c2cccc(F)c2)cs1
2%,O=C(NCC1CCCO1)c1ccccc1-c1nc(-c2ccccc2Cl)no1 (centres undefined)
-23%,CCOc1cc(/C=N/Nc2nc(Nc3ccccc3)nc(N3CCCCC3)n2)ccc1OCC(=O)O
-16%,O=C(COc1ccc(Cl)cc1)OCC(=O)c1ccc[nH]1
-12%,CC1CC(C)CN(C(=O)Cn2c(=O)n(CCCC(=O)NCc3ccco3)c(=O)c3sccc32)C1 (centres undefined)
-8%,CC(=O)Nc1ccc(C(=O)NCC2(N3CCCCC3)CCCCC2)cc1
0%,CN(C)NC(=S)Nc1ccc(S(=O)(=O)N2CCCCC2)cc1
-10%,CCCc1nn(C)c(C(N)=O)c1[N+](=O)[O-]
-18%,C[C@@H](C(=O)Nc1cccnc1)n1c(=O)[nH]c2ccccc2c1=O
0%,COCCCNCCOCCOc1c(OC)cccc1OC
-26%,Cc1cc(NC(=O)c2ccccc2F)ncc1NC(=O)c1cccs1
-17%,COc1ccc(/C=C2/CCc3ccccc3C2=O)cc1OC
-13%,Cc1cccc(OCc2nc(C#N)c(N3CC(C)CC(C)C3)o2)c1 (centres undefined)
-1%,O=C1CC(N2CCOCC2)C(=O)N1CCc1ccccc1 (centres undefined)
5%,CC(C)(Oc1ccc(Cl)cc1)C(=O)Nc1cccnc1
-13%,O=C(CN1C(=O)NC2(CCCCCC2)C1=O)N1CCCCC1
-1%,O=C1CCC/C=C/C[C@H](CC(=O)N(CCO)Cc2ccccc2)C(=O)N[C@@H](Cc2ccccc2)CO1
-3%,CO/N=C/C(c1ncc(C(F)(F)F)cc1Cl)S(=O)(=O)c1ccccc1 (centres undefined)
-6%,COc1ccccc1OCC(=O)NCCC1=CCCCC1
15%,Cc1ccc([C@@H]2[C@@H]3C(=O)N(C)C(=O)[C@@H]3[C@@H]3C(=O)Nc4ccccc4C(=O)N23)cc1
6%,O=C(c1noc2c1CCCCC2)N1CCN(c2ccc(Cl)cc2)CC1
4%,Cc1cc(-c2ccc(Cl)cc2)n2ncnc2n1

3 entries drawn at random from the list so far, as already listed:
VDR inhibitor,Compound
-3%,CCCS/C(N)=N/N=C/c1ccccc1O
-1%,O=C1CC(N2CCOCC2)C(=O)N1CCc1ccccc1 (centres undefined)
-6%,COc1ccccc1OCC(=O)NCCC1=CCCCC1

(continued)
VDR inhibitor,Compound
-3%,CCOc1ccc(C2C3=C(Nc4nc(N)[nH]c(=O)c42)c2ccccc2C3=O)cc1 (centres undefined)
9%,CCOc1cc2c(cc1OCC)C(c1ccccc1)N(c1ccc(C(=O)O)cc1)C(=O)C2 (centres undefined)
-2%,C/C(=N\NC(=O)Cc1c(F)cccc1Cl)c1cccnc1
-20%,Cn1c(SCC(=O)c2ccc(O)c(O)c2)nnc1-c1ccccc1
1%,COc1cccc(CCC(=O)O)c1OC
-2%,CN1CCN(C(=S)c2cn(Cc3ccc(F)cc3)c3ccccc23)CC1
-24%,O=C(Cn1cncn1)N/N=C/c1ccccc1Cl
-3%,COc1cc(/C=N/NC(=O)c2cn(-c3cccc(C)n3)cn2)ccc1O
-2%,Cc1nn(-c2ccccc2)c(C)c1C(=O)OCC(=O)Nc1ccc2c(c1)OCO2
-4%,N#C/C(=C/c1cn(CC(=O)O)c2ccccc12)c1ccc(F)cc1
-17%,CCOC(=O)[C@@H]1[C@H]2COc3cc(OC)ccc3[C@@H]2N2C(=O)N(c3cccc(Cl)c3)C(=O)[C@@]12C
18%,CCN(C(=O)COC(=O)c1cc(-c2ccccc2)nc2c1c(C)nn2-c1ccc(C)cc1)C1CCS(=O)(=O)C1 (centres undefined)
14%,CCCCN(C(=O)c1ccc(C)o1)c1c(N)n(CC(C)C)c(=O)[nH]c1=O
5%,CC(=O)c1cccc(NC(=O)Nc2sc3nc4n(c(=O)c3c2C)CCC(C)CC4)c1 (centres undefined)
3%,O=C(O)c1cccc(N2C(=O)c3cc4cccc(Br)c4cc3C2=O)c1
8%,O=C(CSc1nc2c(c(=O)n1-c1ccc(Cl)cc1)SCC2)Nc1nccs1
-5%,COc1ccc(-c2nnc(SCC(=O)NCc3cccs3)n2C)cc1
2%,COCCCC1CCN(C(=O)C2CCC(=O)N(Cc3cccc(F)c3)C2)CC1 (centres undefined)
-14%,CC(=O)c1cccc(NC(=O)/C(=C/c2ccncc2)NC(=O)c2ccccc2)c1
-24%,Cc1sc2nc(CN(C(=O)NC3CCCCC3)C3CCCCC3)[nH]c(=O)c2c1C
-5%,CNC(=S)N1N=C(c2ccc(C)cc2)CC1c1ccc(Br)cc1 (centres undefined)
10%,COc1cc(OC)c(N(C)C(=O)c2nn(C)c3c2CSc2ccccc2-3)cc1Cl
0%,Cc1sc2c(c1C)C(O)=C(C(=O)Nc1ccccc1)S(=O)(=O)N2C
8%,O=C(CSc1nnnn1-c1ccc2c(c1)CCC2)Nc1ccc2c(c1)OCCO2
-1%,N/C(=N\c1nc2c(c(=O)[nH]1)CCC2)Nc1cccc2ccccc12
-3%,NC(=O)CSCc1ccc(Br)cc1
1%,Cc1cc(S(=O)(=O)Nc2ccc(C(=O)NCC3(N4CCCCC4)CCCCC3)cc2)ccc1F
-11%,CNC(=S)N(CCc1c(C)[nH]c2ccc(C)cc12)Cc1ccco1
?,CCOc1ccc(-c2c(C(=O)N/N=C/c3ccc(OC(C)C)cc3)nnn2-c2nonc2N)cc1
5%,N#Cc1ccc(-c2cccnc2)nc1SCC(=O)c1ccccc1

(next part)
VDR inhibitor,Compound
5%,CCc1cc(=O)oc2c3c(cc(OCC(=O)NC4CC4)c12)OC(C)(C)CC3
-7%,CCn1c(=O)cc(SCC(=O)N2CCN(C3CCCCC3)CC2)c2ccccc21
8%,O=C(CCc1nnc2ccc(NCc3ccco3)nn12)N1CCCCC1
-10%,CCC(=O)N(Cc1c(C)nn(-c2ccccc2)c1Cl)c1ccc(Cl)cc1
-5%,Cc1ccccc1NC(=O)NC1(C(=O)N2CCC(O)CC2)CCCCC1
-28%,Cc1ccc(S(=O)(=O)N(C)C)cc1NC(=S)Nc1cccc2ccccc12
?,CCN=c1scc(C)n1/N=C/c1ccsc1
1%,COc1ccc(-c2nc3c(c(SCC(=O)N4CCCC4)n2)COC(C)(C)C3)cc1
5%,CS(=O)(=O)N1CCC2(CC1)CN(c1ccc(-c3ccccc3)cc1)C2
-12%,Cc1cc(C)c(NC(=O)CNC(=O)c2ccc3ncsc3c2)c(C)c1
-5%,COc1cccc(NC(=O)CN(Cc2ccccc2)S(=O)(=O)c2ccc3nc(C)sc3c2)c1
-21%,CC(C)(C)[C@H]1CCC(=O)N([C@H](CSc2ccccc2)Cc2ccccc2)CC1
-4%,Cc1nn(C(C)(C)C)c(NC(=O)c2ccccc2)c1C#N
14%,COc1ccc(S(=O)(=O)NNC(=O)c2ccccc2-n2cccc2)cc1
-7%,CCN(CC)CCN(C(=O)c1cc(Cl)sc1Cl)c1nc2cc3c(cc2s1)OCO3
-14%,Cc1cc(C(=O)Nc2ccccc2N2CCOCC2)ccc1[N+](=O)[O-]
-2%,COc1ccc(-c2oc3ncn4nc(COc5c(C)cccc5C)nc4c3c2-c2ccc(OC)cc2)cc1
-17%,CCCCOCCCN1CC(=O)N2[C@@H](Cc3c([nH]c4ccccc34)C2(C)C)C1=O
9%,O=C(NCc1ccccc1)C12CN(Cc3ccccc3)CC1C(c1ccc([N+](=O)[O-])cc1)=NO2 (centres undefined)
7%,Cc1cccc(NC(=O)[C@H](NC(=O)[C@@H]2Cc3ccccc3CN2)c2ccccc2)c1
10%,O=C(CNC(=O)c1cccs1)N/N=C/c1ccc(Cl)cc1
19%,c1ccc(Nc2ncnc3c2oc2ccccc23)cc1
-20%,CCOC(=O)c1cc2c(=O)n3ccccc3nc2n(CC2CCCO2)c1=NC(=O)c1ccccc1Br (centres undefined)
5%,C=C1C[C@]23C[C@@]1(O)CC[C@H]2[C@@]12C=C[C@H](O)C(C)(C(=O)O1)[C@H]2[C@@H]3CC(=O)O
-6%,CCOC(=O)CSc1nc2sc3c(c2c(=O)n1-c1ccccc1)CCC(C(C)(C)C)C3 (centres undefined)
-5%,COc1ccc(C(=O)OC(C)C(=O)Nc2cc(C(F)(F)F)ccc2Cl)c(OC)c1OC (centres undefined)
-9%,Cc1ccc(-n2ncc(C(=O)N3CCN(c4cccc(C)c4C)CC3)c2C2CCNCC2)c(C)c1
-2%,CC(C)c1ccc(C(=O)OC2CCOC2=O)cc1 (centres undefined)
12%,Cc1ccc(N=C2NC(=O)C(CC(=O)O)S2)cc1 (centres undefined)
-2%,CN(C)C(=O)c1ccc(NC(=O)COC(=O)Cn2cc(C(F)(F)F)ccc2=O)cc1
13%,COc1ccccc1-n1cnnc1SC(C)C(=O)NCC1CCCO1 (centres undefined)
-10%,COC(=O)c1c(O)c2c([nH]c1=O)CCCC2

Among those listed so far, these have an aryl thioether with sulfur outside any ring:
VDR inhibitor,Compound
1%,COc1cc2c(cc1NC(=O)CSc1nc3cc(Cl)ccc3s1)oc1ccccc12
-20%,CN(C)CCCn1c(SCC(=O)N2CC(=O)Nc3ccccc32)nc2ccccc2c1=O
?,CCOC(=O)CSc1nc(-c2ccccc2)ns1
-20%,Cn1c(SCC(=O)c2ccc(O)c(O)c2)nnc1-c1ccccc1
8%,O=C(CSc1nc2c(c(=O)n1-c1ccc(Cl)cc1)SCC2)Nc1nccs1
-5%,COc1ccc(-c2nnc(SCC(=O)NCc3cccs3)n2C)cc1
8%,O=C(CSc1nnnn1-c1ccc2c(c1)CCC2)Nc1ccc2c(c1)OCCO2
5%,N#Cc1ccc(-c2cccnc2)nc1SCC(=O)c1ccccc1
-7%,CCn1c(=O)cc(SCC(=O)N2CCN(C3CCCCC3)CC2)c2ccccc21
1%,COc1ccc(-c2nc3c(c(SCC(=O)N4CCCC4)n2)COC(C)(C)C3)cc1
-21%,CC(C)(C)[C@H]1CCC(=O)N([C@H](CSc2ccccc2)Cc2ccccc2)CC1
-6%,CCOC(=O)CSc1nc2sc3c(c2c(=O)n1-c1ccccc1)CCC(C(C)(C)C)C3 (centres undefined)
13%,COc1ccccc1-n1cnnc1SC(C)C(=O)NCC1CCCO1 (centres undefined)

Only part of the results is shown. The share of hits here may be higher or lower than overall.
